SARS PLP yeast: qHTS of Yeast-based Assay for SARS-CoV PLP; S. cerevisiae expressing SARS-CoV PLpro, growth rescue; control for the full effect not named in the record; Potency, µM (titrated, usually from 32.9 µM), inactives show at the highest dose activity, positive = growth rescue; 330,000 compounds, 0.19% hits; also: 0% is about no effect; nearly all actives have a fitted effect of over 55% in size; growth read by luminescence after 48 h
Lassa entry inh: qHTS for Inhibitors of binding or entry into cells for Lassa Virus; AID 540256, 2011; 300,000 compounds, 1.2% hits; Potency, µM (highest dose often 37.9 µM), for the others: at the top dose activity change, negative = inhibition, usual class: inhibitors; Lassa virus pseudotype entry inhibition, cell reporter; control for the full effect not named in the record; active means well fitted inhibition curve with a large enough effect; inconclusive means small, poorly fitted or top-dose-only effect, or effect the other way; inactive means flat fitted curve, though single readings scatter; tested in HEK293 cells; also: % is scaled to controls: 0 for no effect and ±100 for the full control effect; nearly all actives have a fitted effect of over 50% in size; luciferase read-out
RE007 growth inh: qHTS Assay for Inhibitors of the HIV-1 protein Vpr. S. pombe RE007 Vpr strain, BacTiter-Glo ATP luminescence, 24 h; control for the full effect not named in the record. Potency, µM (top dose mostly 92.2 µM), inactives show top-dose activity change, negative = less growth. 360,000 compounds, 0.21% hits; active = well fitted falling curve with a large enough effect; inconclusive = small, poorly fitted or top-dose-only effect; inactive = no such curve, though single readings can be large or run the other way;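 also: % is scaled to controls: 0 for no effect and ±100 for the full control effect; nearly all actives have a fitted effect of over 50% in size; the assay follows cell death caused by Vpr and the record does not say whether a fall means rescue or toxicity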
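Fission yeast RE007 carrying one integrated HIV-1 vpr copy, seeded at OD 0.01 in PMG+AL medium with 23 nL pinned compound. Grown 24 h at 30 degrees; viability read by BacTiter-Glo luminescence after 5 min.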
StopGo reporter: High Throughput Screening for Foot and Mouth Disease Virus Antivirals; human cells with a luciferase reporter of 2A StopGo recoding; control for the full effect not named in the record; Potency, µM (doses to about 57.9 µM), for inactives: top-dose signal change, negative = less light; 410,000 compounds, 1.2% hits; AID 1159524, 2015; active = well fitted falling curve with a large enough effect; inconclusive = small, poorly fitted or top-dose-only effect; inactive = no such curve, though single readings can be large or run the other way; tested in HEK293T cells; also: % is scaled to controls: 0 for no effect and ±100 for the full control effect; nearly all actives have a fitted effect of over 45% in size; luciferase light after 4 h
Marburg entry inh: qHTS for inhibitors of binding or entry into cells for Marburg Virus | Marburg virus pseudotyped entry inhibition, cell reporter; control for the full effect not named in the record; about a third of the inactives were read at about 46 µM | Potency, µM (doses to about 37.8 µM), for inactives: top-dose activity change, negative = inhibition, most hits filed as inhibitors | 300,000 compounds, 1.8% hits; active = well fitted inhibition curve with a large enough effect; inconclusive = small, poorly fitted or top-dose-only effect, or effect the other way; inactive = flat fitted curve, though single readings scatter; tested in HEK293 cells; about a fifth of its hits are not listed in these tables; also: % is scaled to controls: 0 for no effect and ±100 for the full control effect; luciferase read-out
Cruzain inh Det: qHTS Assay for Promiscuous and Specific Inhibitors of Cruzain (with detergent); Cruzipain (Trypanosoma cruzi), P25779; purified cruzain, Z-FR-AMC fluorescence, 0.01% Triton; Potency, µM, for inactives: max response, negative = inhibition, hits mostly inhibitors; 200,000 compounds, 0.43% hits; AID 1478, 2009; active = well fitted curve in the direction sought with a large enough effect; inconclusive = small, poorly fitted or top-dose-only effect, or another doubt; inactive = no such curve, though single readings can be large; an effect the other way counts as inactive or inconclusive;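 also: plate controls were neutral wells for no effect and buffer without enzyme for full effect; nearly all actives have a fitted effect of over 40% in size; top concentration of the series not given in the record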
Target sequence (P25779 123-467 limits assumed): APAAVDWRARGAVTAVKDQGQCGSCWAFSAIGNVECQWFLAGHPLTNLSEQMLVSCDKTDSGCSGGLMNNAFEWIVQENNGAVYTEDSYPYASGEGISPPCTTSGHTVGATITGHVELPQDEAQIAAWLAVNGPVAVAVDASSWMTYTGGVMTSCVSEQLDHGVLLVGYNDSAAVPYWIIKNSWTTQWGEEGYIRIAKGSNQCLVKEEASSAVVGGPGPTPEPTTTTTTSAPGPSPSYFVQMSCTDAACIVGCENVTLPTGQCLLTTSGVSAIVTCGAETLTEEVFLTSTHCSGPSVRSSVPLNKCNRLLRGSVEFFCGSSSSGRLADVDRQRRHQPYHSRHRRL
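Detergent-containing run (0.01% Triton X-100) in acetate buffer pH 5.5 with 5 mM DTT: enzyme at 1.5 nM final, 15 min compound preincubation at room temperature, then 2 uM Z-FR-AMC substrate. Activity taken as 60 s fluorescence increase at 360/450 nm.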
NS1 function inh: qHTS Assay for Inhibitors of Influenza NS1 Protein Function | 270,000 compounds, 0.4% hits | S. cerevisiae slowed by influenza A NS1, growth recovery by OD600 | Potency, µM (titrated, usually from 46.1 µM), for inactives: top-dose activity, positive = more growth; also: actives are rising curves; nearly all actives have a fitted effect of over 50% in size
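Read-out: OD600 growth recovery of NS1-expressing budding yeast. Cells grown overnight at 30C in -URA glucose medium, washed, resuspended and diluted 1:100 in 2% galactose assay medium, pH 6.0. Same strain lacking NS1 served as positive control.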
Cruzain inh noDet: qHTS Assay for Promiscuous and Specific Inhibitors of Cruzain (without detergent). AID 1476, 2009. Cruzipain (Trypanosoma cruzi), P25779. purified cruzain, Z-FR-AMC fluorescence, no detergent. 200,000 compounds, 2.3% hits. Potency, µM, for inactives: max response, negative = inhibition, usual class: inhibitors; active = well fitted curve in the direction sought with a large enough effect; inconclusive = small, poorly fitted or top-dose-only effect, or another doubt; inactive = no such curve, though single readings can be large; an effect the other way counts as inactive or inconclusive;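 also: plate controls were enzyme without inhibitor for no effect and buffer without enzyme for full effect; nearly all actives have a fitted effect of over 40% in size; top concentration of the series not given in the record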
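Purified cruzain at 1.5 nM, pre-incubated 15 min with compound at room temperature in 100 mM sodium acetate pH 5.5, 5 mM DTT, 0.00005% Triton X-100. Reaction started with 2 uM Z-FR-AMC; AMC fluorescence increase over 60 s gives rate.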
* marks the source's active call; other numbers are inactive results; u = inconclusive; x = no result given; & = joins results of further samples; [ ] = remark or other dose. Unless noted, calls follow the shape of the dose curve; as a rule, active means well fitted rising curve with a large enough effect; inconclusive means small, poorly fitted or top-dose-only effect; inactive means no such curve, though single readings can be large or run the other way. Potency is read from the fitted curve at half-maximal effect.

#	molecule	SARS PLP yeast	Lassa entry inh	RE007 growth inh	StopGo reporter
1	CC(=O)c1ccc(NC(=O)NCc2ccc(F)cc2)cc1	1%	26%[46.1 µM]	5%	16%
2	C=CC(=O)OCCOCCOCCOCCOC(=O)C=C	-12%	x	-4%	u
3	COc1ccc(CNC(=O)c2ccc(CNS(=O)(=O)c3ccc(F)cc3)cc2)cc1	x	29%[46.1 µM]	x	-9%
4	CCOc1ccc(NCc2cccn2-c2nnc(N3CCC(C(=O)NCC(C)c4ccccc4)CC3)s2)cc1 (stereo not drawn)	x	x	x	u
5	COc1cccc(C(=O)Nc2ccccc2OC(F)(F)F)c1	-1%	9%[46.1 µM]	-10%	-5%
6	CCCCc1c(O)nc(SCC(=O)NC(C)(C)C)n(-c2ccccc2C)c1=O	0%	17%	16%	7%
7	CC(C)c1nnc(NC(=O)CN(C)S(=O)(=O)c2ccc3c(c2)OCCO3)s1	2%	6%	7%	u
8	O=C(O)c1cccnc1SC1CC(=O)N(c2ccc(OC(F)F)cc2)C1=O (stereo not drawn)	0%	16%	8%	-9%

#	Marburg entry inh	Cruzain inh Det	NS1 function inh	Cruzain inh noDet
1	u	x	-2%	x
2	x	8.0%&3.3%	x	-2%&3%
3	x	-0.1%	x	8%
4	u	-4.5%	x	5%
5	-3%[46.1 µM]	x	2%	x
6	-3%[46.1 µM]	1.5%	18%	0%
7	-12%	2.9%	-11%	6%
8	6%[46.1 µM]	x	2%	x

Next part.
#	molecule	SARS PLP yeast	Lassa entry inh	RE007 growth inh	StopGo reporter
9	Cc1ccsc1C(=O)N1CCC(N2CCC(C(=O)NCC3CCCO3)CC2)CC1 (stereo not drawn)	0%	15%[46.1 µM]	1%	10%
10	Cc1noc(C)c1C(=O)N1CCCc2ccccc21	0%	5%	6%	-2%
11	CN(C)C(CNC(=O)/C=C/c1cccc(Cl)c1)c1ccccc1 (stereo not drawn)	3%	-20%	-23%	10%
12	Cc1ccc(CSCc2nc3ccccc3[nH]2)cc1	-2%	u	-8%	-1%
13	Cc1ccc(Cn2c(=O)c3cccnc3n(Cc3ccc(F)cc3)c2=O)cc1	x	x	x	-27%
14	O=C(O)c1ccc(NS(=O)(=O)c2cccc(C(=O)Nc3ccc(Br)cc3)c2)cc1	-3%	x	3%	-5%
15	COc1ccc(NC(=O)c2nc(SC)ncc2Cl)cc1	-1%	x	-5%	24%
16	C#CCOCCOCCOCCNc1nc(N2CCN(C(=O)[C@H](CCC(=O)O)n3cc(C(N)CC(C)C)nn3)CC2)nc(N2CCN(C(=O)[C@H](Cc3ccc(O)cc3)n3cc(C(N)CC(C)C)nn3)CC2)n1 (stereo partly drawn)	-1%	x	-5%	-15%

#	Marburg entry inh	Cruzain inh Det	NS1 function inh	Cruzain inh noDet
9	5%[46.1 µM]	x	2%	x
10	1%[46.1 µM]	7.8%	10%	-1%
11	u	x	x	x
12	u	x	x	x
13	3%[46.1 µM]	0.3%	x	2%
14	x	x	u	x
15	x	x	-3%	x
16	x	x	2%	x

(further entries)
#	molecule	SARS PLP yeast	Lassa entry inh	RE007 growth inh	StopGo reporter
17	Cc1cc(SCC(=O)OCC(=O)N2CCN(C(=O)c3ccco3)CC2)c(C)cc1Br	-6%	0%	-5%	x
18	Cc1c(NC(=O)C(C)Sc2nnc(-c3ccccc3)o2)c(=O)n(-c2ccccc2)n1C (stereo not drawn)	-3%	3%	-1%	0%
19	Cc1ccc2c(c1)c1c3n2CCCN(Cc2ccccc2)C3CCC1 (stereo not drawn)	0%	-24%	15%	10%
20	COc1ccc(NC(=O)CSc2nc(C)cc(C(F)(F)F)n2)cc1	-1%	-1%	9%	-5%
21	O=C(O)COc1ccc(NC(=O)C(c2ccccc2)c2ccccc2)cc1	0%	x	10%	-8%
22	O=C(NC1CCCC1)c1ccc2c(c1)N(Cc1ccc(F)cc1)C(=O)c1ccccc1S2	x	u	x	0%
23	CCOc1cccc(-c2nc3cc(C)ccc3o2)c1	4%	-1%	0%	28%
24	COc1ccc(-c2nc(C#N)c(NCc3cccnc3)o2)cc1OC	-4%	-12%	-3%	22%

#	Marburg entry inh	Cruzain inh Det	NS1 function inh	Cruzain inh noDet
17	2%	-28%	-40%	u
18	15%[46.1 µM]	1.4%	-12%	-2%
19	7%	1.3%	2%	-5%
20	15%[46.1 µM]	11%	-3%	6%
21	x	x	11%	x
22	x	-1.0%	x	u
23	x	0.4%	-9%	6%
24	-3%	-6.8%	9%	9%

Continuation.
#	molecule	SARS PLP yeast	Lassa entry inh	RE007 growth inh	StopGo reporter
25	COc1ccc(C2CC(c3cccs3)=NN2C(=O)CSc2nnc(N)s2)cc1OC (stereo not drawn)	0%	6%	26%	-7%
26	C=CCn1c(SCC(C)=O)nc2scc(-c3ccco3)c2c1=O	2%	-1%[46.1 µM]	-20%	-5%
27	Cc1ccnc(NC(=O)C2CCN(S(=O)(=O)c3ccc4ccccc4c3)CC2)c1	-3%	1%	-11%	10%
28	Cc1ccc(C)c(N2CCN(C(=O)c3cc4c(=O)n(Cc5ccco5)ccc4nc3C)CC2)c1	x	-14%[46.1 µM]	x	u
29	CCc1cc(=O)oc2c(C)c(OCC(=O)NCCCN3CCOCC3)ccc12	2%	u	1%	-4%
30	CC1CCCC(C)N1C(=O)COC(=O)c1ccc(O)cc1 (stereo not drawn)	11%	4%	4%	11%
31	C=CCOc1ccc(CC2C(=O)N(C)C(=O)N(C)C2=O)cc1	6%	0%	-1%	-24%
32	CCCc1nn2c(=O)cc(CSCC(=O)Nc3ccccc3OC)nc2s1	3%	17%[46.1 µM]	8%	0%

#	Marburg entry inh	Cruzain inh Det	NS1 function inh	Cruzain inh noDet
25	u	x	x	x
26	-26%[46.1 µM]	x	11%	x
27	2%	x	x	x
28	x	-8.1%	x	u
29	-13%[46.1 µM]	x	-3%	x
30	3%	-1.8%	9%	4%
31	8%&8%	3.4%	15%	-3%
32	u	x	-11%	x

(list continues)
#	molecule	SARS PLP yeast	Lassa entry inh	RE007 growth inh	StopGo reporter
33	O=C(O)COc1ccccc1/C=N/NC(=O)CSc1nnc(-c2ccc(Cl)cc2)n1C1CCCCC1	-1%	x	4%	-5%
34	N=C1/C(=C\c2coc3ccccc3c2=O)C(=O)N=C2SC(c3ccncc3)=NN12	-5%	14%	14µM*	16µM*
35	O=C(NCCN1CCCCC1)c1ccc(Cl)nc1Cl	2%	x	4%	2%
36	CC(=O)c1cccc(NC(=O)N2CCCC2C(=O)Nc2cccc(C)c2)c1 (stereo not drawn)	1%	-12%	-20%	-4%
37	Cc1ccccc1CNC(=O)C1CCN(c2nnc(C)c3c(C)n(-c4ccccc4)nc23)CC1	x	28%[46.1 µM]	x	-10%
38	O=C(NN1C(=O)C2CCCCC2C1=O)c1ccco1 (stereo not drawn)	2%	x	7%	1%
39	O=S(=O)(Nc1nc2ccccc2nc1N1CCN(c2ccccc2F)CC1)c1ccc(Cl)cc1	-6%	0%	-1%[3.69 µM]	-11%
40	O=C(OCc1cc2ccccc2[nH]c1=O)c1cccs1	13%	0%	x	48%[activator]

#	Marburg entry inh	Cruzain inh Det	NS1 function inh	Cruzain inh noDet
33	x	x	12%	x
34	-3%[46.1 µM]	x	-75%	x
35	x	x	2%	x
36	-16%	-2.1%	5%	-4%
37	x	-11%	x	9%
38	x	x	4%	x
39	-3%	-2.0%	u	u
40	2%	2.3%	5%	11%

Next results:
#	molecule	SARS PLP yeast	Lassa entry inh	RE007 growth inh	StopGo reporter
41	O=C(COc1coc(CN2CCN(c3ccccc3F)CC2)cc1=O)N1CCc2ccccc21	1%	3%	-5%	-13%
42	CC(Sc1ncccn1)C(=O)NC1CCCC1 (stereo not drawn)	-5%	9%	-18%	-14%
43	Cc1ccccc1NC(=O)Cc1nc(COC(=O)c2cc(Cl)ccc2O)cs1	-2%	8%[46.1 µM]	-8%	-3%
44	NNC(=O)COc1ccccc1F	2%	9%	1%	-13%
45	O=C(Nc1cccnc1)C12CC3CC(CC(C3)C1)C2	0%	5%	5%	-18%
46	O=C(CN1C(=O)c2ccccc2C1=O)OCC(=O)c1ccc(F)cc1	-9%	-1%	5%	-8%
47	S=C(NCc1ccco1)N1CCN(c2ccc(Cl)cc2)CC1	-1%	-1%[46.1 µM]	0%	-10%
48	CCc1cccc(NC(=O)Cn2c(=O)n(-c3cccc(Cl)c3)c(=O)c3c2c2cc(C)ccc2n3C)c1	x	4%[46.1 µM]	x	-20%
49	CCCOc1ccc(CN(C(=O)c2nc(SC(C)C)ncc2Cl)C2CCS(=O)(=O)C2)cc1 (stereo not drawn)	x	u	x	-27%
50	COc1cc2c(ccc3cc(OC)c(OC)c(O)c32)cc1O	1%	x	-2%	-1%
51	Cc1c(C(=O)N2CCCCC2)nnn1-c1nonc1N	-1%	4%	3%	-9%

#	Marburg entry inh	Cruzain inh Det	NS1 function inh	Cruzain inh noDet
41	u	x	x	x
42	u	x	x	x
43	u	x	19%	x
44	u	-2.2%	6%	7%
45	-19%	x	0%	x
46	12%	x	x	x
47	u	x	2%	x
48	0%[46.1 µM]	-0.6%	x	-6%
49	-34%[46.1 µM]	-6.7%	x	u
50	x	x	0%	x
51	1%	4.8%	-2%	0%

Screening results as filed in PubChem BioAssay.
